# Assay outcomes: PubChem, several laboratories
# HNF4A DNA FP: change in binding of human HNF4A to DNA, primary screen, biochemical, fluorescence polarization, FITC-DNA. 360,000 tested, 0.3% active. 1 h. Hepatocyte nuclear factor 4-alpha (Homo sapiens), P41235. activity change, % at 10 µM; in the data active means activity change above about 30%, passing the limit was not always enough;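 further: controls were the assay level and a saturating level of protein; the project sought stronger binding though the title names inhibitors; some compounds called inactive have numbers as strong as hits; positive values seem to mean higher polarization but the record does not say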
# FGF22 binding: binders of human FGF22 protein, primary screen, FGF22 synaptogenesis inhibitor project, biophysical, thermal shift, single point; calls only at 9.99 µM; 340,000 tested, 1.5% active; Fibroblast growth factor 22 (Homo sapiens), Q9HCT0; recombinant FGF22 thermal shift, SYPRO orange fluorescence; percent of sucrose octasulfate shift, DMSO zero;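 active means melting point raised past a set limit in the mean and every replicate; inconclusive means no clear call; three in four hits are not shown here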
# Target sequence (Q9HCT0 whole entry, looked up): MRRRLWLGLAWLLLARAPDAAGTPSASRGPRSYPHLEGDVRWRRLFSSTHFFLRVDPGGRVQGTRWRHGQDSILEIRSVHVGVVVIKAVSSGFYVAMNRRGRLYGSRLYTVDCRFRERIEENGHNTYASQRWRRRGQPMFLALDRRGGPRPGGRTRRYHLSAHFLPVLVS
# Vif A3G: inhibitors of Vif binding to APOBEC3G peptide, primary screen, biochemical, TR-FRET, GST-Vif 1-94, biotin-A3G peptide, dose response retest (AID 1117319); TR-FRET GST-Vif / biotin-A3G peptide binding; higher % means a stronger effect; test concentration not given here; strong numbers were not always called active; 260,000 tested, 0.57% active; one-dose inhibition, %; IC50 in µM for titrated hits;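 active means above the screen mean plus three standard deviations and confirmed in dose response; inconclusive means results disagree or hit not tested in dose response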;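 further: Vif residues 1-94 fused to GST binding biotinylated APOBEC3G peptide 110-148; 0% = full assay without inhibitor and 100% = GST in place of GST-Vif; retest series ran down from 100 µM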
# MLL AF4-AF9 inh: inhibitors of AF4 peptide binding to AF9, primary screen, biochemical, AlphaScreen, biotin-AF4 peptide, FLAG-AF9, single point; 350,000 tested, 0.47% active; inhibition, % at 10 µM; AID 651704, 2012; Protein AF-9 (Homo sapiens), P42568;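 active means every replicate reaching a set inhibition limit, whatever the replicate mean, cut at about 25% in these data; inconclusive means mean inhibition reaches that limit but some replicates miss it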;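 further: 0% = plate neutral control median and 100% = total signal loss; the record names both 10 and 1 µM as test concentration; the first replicate is given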
# Target sequence (P42568 whole entry, looked up): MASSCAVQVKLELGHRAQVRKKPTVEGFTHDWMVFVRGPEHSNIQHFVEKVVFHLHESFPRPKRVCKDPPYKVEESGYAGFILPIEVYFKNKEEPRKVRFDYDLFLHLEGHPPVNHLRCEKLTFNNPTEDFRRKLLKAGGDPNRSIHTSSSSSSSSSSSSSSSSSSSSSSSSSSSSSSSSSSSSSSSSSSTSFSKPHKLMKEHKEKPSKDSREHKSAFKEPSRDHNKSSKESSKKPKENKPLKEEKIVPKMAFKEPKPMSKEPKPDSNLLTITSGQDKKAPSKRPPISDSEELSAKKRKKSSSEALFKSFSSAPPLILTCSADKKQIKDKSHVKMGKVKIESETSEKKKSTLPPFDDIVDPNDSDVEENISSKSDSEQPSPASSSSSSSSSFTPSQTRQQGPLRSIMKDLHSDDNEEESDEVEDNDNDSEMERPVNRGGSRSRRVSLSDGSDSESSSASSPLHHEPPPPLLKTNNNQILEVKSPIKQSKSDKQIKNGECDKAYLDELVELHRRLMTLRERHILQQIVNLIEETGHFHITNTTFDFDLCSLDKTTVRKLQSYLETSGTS
# Ecoli growth: E. coli growth inhibition, primary screen, OD600 | OD600 absorbance (no concentration beside the values) | Escherichia coli growth, 23 h; active compounds read low | AID 1053175, 2014 | 330,000 tested, 0.21% active;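 active means OD600 absorbance below the run mean of sample wells minus 3.6 SD, in any replicate, cut at about 0.56 in these data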;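 further: stock transfer was 300 nL into about 60 µL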
# UCH37 DUB inh: inhibitors of human UCH37 deubiquitinase, primary screen, biochemical, Ub-AMC cleavage, fluorescence; Ubiquitin carboxyl-terminal hydrolase isozyme L5 (Homo sapiens), Q9Y5K5; purified proteasome/UCH37; inhibition, % (test concentration not listed); 330,000 tested, 0.33% active; AID 588478, 2011;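 active means mean of two replicates above 20%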;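 further: 0% = compound-free wells with enzyme and 100% = wells lacking proteasome; stock transfer was 100 nL into about 20 µL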
# Target sequence (Q9Y5K5 whole entry, looked up): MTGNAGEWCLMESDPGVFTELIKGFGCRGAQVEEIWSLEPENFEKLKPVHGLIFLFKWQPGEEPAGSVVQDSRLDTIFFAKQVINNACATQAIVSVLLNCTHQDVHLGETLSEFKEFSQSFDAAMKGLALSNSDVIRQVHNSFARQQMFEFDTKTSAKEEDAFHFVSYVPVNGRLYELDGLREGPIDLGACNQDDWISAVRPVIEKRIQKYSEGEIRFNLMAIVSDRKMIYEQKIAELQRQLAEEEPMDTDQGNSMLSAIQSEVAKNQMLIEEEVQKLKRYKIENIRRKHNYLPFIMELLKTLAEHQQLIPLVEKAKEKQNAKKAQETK
#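 system = Proteasome-associated human UCH37 deubiquitinase | amount = 0.15 nM proteasome as dispensed | medium = pH 7.4 Tris-HCl (50 mM) with ovalbumin, ATP-MgCl2, DTT | incubation = 30 min preincubation with enzyme, 25 min cleavage at room temperature | detection = AMC fluorescence 355/460 nm | read-out basis = percent inhibition | controls = no-proteasome and no-compound wells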
# RanGTP-Impb inh: inhibitors of RanGTP-importin-beta interaction, primary screen, biochemical, FRET, CFP-Ran, YFP-importin-beta, homogeneous. Ran GTPase (GTP-bound) - importin-beta complex. cell-free CFP-Ran/YFP-importin-beta FRET ratio. inhibition, % (test concentration not listed). 300,000 tested, 1.1% active. AID 2216, 2009;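 active means most replicates above 15%; inconclusive means exactly half above 15%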;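 further: 0% = DMSO wells and 100% = Ran loaded with GDP instead of GTP; wells of about 40 µL received 100 nL stock; the first replicate is given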
# * = called active by the depositor; i = inactive; ? = inconclusive; nt = no result given; & = joins results of further samples. Some of the compounds tested, so the mix of outcomes need not match the whole.
SMILES,HNF4A DNA FP,FGF22 binding,Vif A3G,MLL AF4-AF9 inh,Ecoli growth,UCH37 DUB inh,RanGTP-Impb inh
C=CC1=CCN(S(=O)C(C)(C)C)[C@H]1CCO (stereo partly specified),-2.3,i,-4%,-1.3,0.7,0.0,nt
CN1C(=O)C2(C(C#N)=C(N)N(c3ccc(Cl)cc3)C3=C2C(=O)CC(C)(C)C3)c2ccccc21 (stereo unspecified),-1.3,nt,25%,nt,0.73,3.3,6.9
Nc1nc(=S)ss1,3.1,i,1%,-7.5,0.53,6.5,nt
O=C(C[C@H]1C[C@H](C(=O)N2CCOCC2)[C@@]2(CCC3CCCC3)c3[nH]c4cc(-c5ccco5)ccc4c3CCN2C1=O)NCCCn1ccnc1,3.3,i,nt,18,0.7,-15,nt
COc1cc(COC(=O)Oc2ccc(CNC(C)=O)cc2OC)c([N+](=O)[O-])cc1OC,2.8,i,nt,2.8,0.67,0.5,0.6
CCc1nnc(NC(=O)[C@@H](NC(=O)c2ccc(OC)cc2)C(C)C)s1,-2.2,i,1%,-4.1,0.71,3.6,0.6
O=C(O)C(Cc1cccs1)c1cccs1 (stereo unspecified),-2.4,i,-1%,-4.7,0.71,4.9,nt
Nc1ncccc1OCc1ccc(Br)cc1,-0.2,i,2%,4.5,0.64,4.0,5.0
COc1cc2[nH]c(=O)c(C(=O)NCc3ccccc3Cl)c(O)c2cc1OC,0.9,i,nt,1.5,0.7,-69,5.1
O=C(CN1CCCCCC1)Nc1ccccc1[N+](=O)[O-],2.5,nt,nt,-0.1,0.65,1.0,3.1
CN1C[C@@H]2C(c3ccc(C(F)(F)F)cc3)C3(c4cccnc4)CC2(C3)[C@H]1c1ccccc1 (stereo partly specified),3.5,i,nt,0.6,nt,1.0,?
O=C1C2C3C=CC(C4CC34)C2C(=O)N1Cc1ccco1 (stereo unspecified),3.3,i,1%,4.7,0.65,2.4,-1.5
C[C@H]1CN([C@@H](C)CO)C(=O)c2c(c3ccccc3n2C)-c2ccccc2CO[C@H]1CN(C)C(=O)[C@@H]1CCCN1C,2.5,i,1%,3.3,nt,nt,nt
CCCOc1ccc(C(=O)CCC(=O)Nc2ccc(N3CCN(C)CC3)cc2)cc1,-0.3,i,6%,13,0.67,-0.5,nt
CCNc1nc(NC(C)(C)C)nc(N2CCCCC2)n1,5.0,i,nt,3.7,0.64,3.5,-3.8
Cc1ccc(C(=O)O/N=C(\N)c2nonc2N)cc1,-5.8,i,0%,2.3,nt,nt,-4.4
Cc1ccc2c(c1)N(CCC(=O)NCC1COc3ccccc3O1)C(=O)CO2 (stereo unspecified),-0.7,nt,-7%,nt,0.65,0.4,6.5
O=C(c1ccco1)N(Cc1cccc(Cl)c1)C1CCS(=O)(=O)C1 (stereo unspecified),9.9,i,nt,1.6,0.67,2.5,1.7
CCn1c(O)c(N=NC(=O)CNC(=O)Cc2ccccc2)c2ccccc21,-1.2,i,nt,-0.2,0.59,7.4,-0.8
COc1ccc2nc(NC(=O)c3ccc(NS(=O)(=O)c4cccs4)cc3)sc2c1,-5.4,nt,?,nt,0.7,-45,0.8
COc1ccc(C2c3c(-c4ccccc4O)n[nH]c3C(=O)N2Cc2ccco2)cc1OC (stereo unspecified),0.3,i,-5%,12,0.66,0.4,-6.9
Cc1ccc(-c2cnc3c(c2)C(=O)N([C@H](C)CO)C[C@H](C)[C@@H](CN(C)Cc2ccccc2F)O3)cc1,-2.2,i,10%,2.1&5.1&7.2,nt,nt,nt
c1cncc(-c2nn3c(Cn4nnc5ccccc54)nnc3s2)c1,1.3,i,3%,-14,0.68,1.2,-1.4
CCN1CCN(C(=O)/C=C/c2ccc([N+](=O)[O-])cc2)CC1,-3.0,nt,nt,nt,0.71,6.2,-0.3
COc1ccc2[nH]c3c(=O)n(CCN4CCOCC4)cnc3c2c1,1.0,i,8%,6.1,0.7,-241,4.2

# 3 records picked at random from those above:
SMILES,HNF4A DNA FP,FGF22 binding,Vif A3G,MLL AF4-AF9 inh,Ecoli growth,UCH37 DUB inh,RanGTP-Impb inh
COc1cc(COC(=O)Oc2ccc(CNC(C)=O)cc2OC)c([N+](=O)[O-])cc1OC,2.8,i,nt,2.8,0.67,0.5,0.6
CCCOc1ccc(C(=O)CCC(=O)Nc2ccc(N3CCN(C)CC3)cc2)cc1,-0.3,i,6%,13,0.67,-0.5,nt
CCNc1nc(NC(C)(C)C)nc(N2CCCCC2)n1,5.0,i,nt,3.7,0.64,3.5,-3.8

# Continuation:
SMILES,HNF4A DNA FP,FGF22 binding,Vif A3G,MLL AF4-AF9 inh,Ecoli growth,UCH37 DUB inh,RanGTP-Impb inh
O=C(O)c1ccc(NCc2nc3ccccc3n2Cc2ccccc2F)cc1,4.1,i,0%,-23,0.72,1.2,2.7
CCn1c(CNC(=O)c2ccc(OC)c(OC)c2)nnc1SCC(=O)Nc1ccccc1,-1.3,i,-2%,2.0,0.61,0.9,4.9
COc1ccc(CCNC(=O)c2ccc(Cl)cc2)cc1OC,2.4,i,0%,-4.4,0.72,1.0,-0.9
CC(C)c1cc(C(=O)NCCc2cccs2)c(N)s1,22,i,nt,1.0,nt,nt,nt
COc1cccc(-c2nnc(-c3ccccc3[N+](=O)[O-])o2)c1,-4.3,i,26%,nt,0.72,0.8,-1.8
CCCc1cc(C(=O)N2CCCC(Cc3ccccc3C)(C(=O)OCC)C2)no1 (stereo unspecified),0.0,i,-4%,-4.2,0.66,-1.5,2.4
CC(=O)N1CCOc2ccc(S(=O)(=O)N3CCC(C)CC3)cc21,-3.8,i,nt,-6.0,0.66,1.9,6.0
CCOC(=O)c1c(C)[n+](-c2ccc(C)cc2)c(CC)c2cc(OC)c(OC)cc12,2.4,i,0%,2.3,0.66,-179,-3.5
Cc1ccc(/C(O)=C2/C(=O)C(=O)N(CCN3CCOCC3)C2c2cccnc2)cc1 (stereo unspecified),-3.0,nt,4%&16%,nt,0.7,13,5.7
CC1=CC(C)C2(COC(=O)Nc3ccccc3)COC(C)C1C2C (stereo unspecified),0.0,i,-1%,-0.2,0.7,0.9,-3.7
COc1cc(NC(=O)CCN2CCN(Cc3ccccc3)CC2)cc(OC)c1,1.7,nt,30%,nt,0.71,-1.7,-1.3
Cc1cc(C(=O)N2CCC2(C)C(=O)NS(=O)(=O)c2cccc(OC(F)F)c2)nn1C (stereo unspecified),0.9,i,nt,-6.8,nt,nt,nt
Cc1noc(NS(=O)(=O)c2ccc(N/C=C/C(=O)c3ccc4c(c3)OCO4)cc2)c1C,-2.9,nt,16%,nt,0.7,5.3,4.1
COc1ccc(S(=O)(=O)N(C)CC(=O)N2CCOCC2)cc1,-2.2,nt,32%,nt,0.66,1.0,2.7
c1ccc(COc2ccccc2CNCc2cccnc2)cc1,0.3,nt,-2%,nt,0.7,2.6,5.5
Cc1ccccc1C(=O)NC(NCC1CCCO1)C(Cl)(Cl)Cl (stereo unspecified),-3.6,nt,-4%,nt,0.69,1.1,1.1
COc1ccc2cc(C(c3nnnn3CCc3ccccc3)N3CCCC(C)C3)c(=O)[nH]c2c1 (stereo unspecified),5.0,nt,17%,nt,0.67,-0.4,3.7
CSc1ccc(S(=O)(=O)Nc2cccc(F)c2)cc1,nt,nt,23%,nt,0.71,5.3,-1.1
C[C@H](CO)N1C[C@H](C)[C@@H](CN(C)S(C)(=O)=O)Oc2ccc(NC(=O)CCC(F)(F)F)cc2C1=O,-0.3,i,nt,2.0,nt,1.1,nt
C=CC[N+](C)(C)c1ccc(CCC(=O)CCc2ccc([N+](C)(C)CC=C)cc2)cc1,-1.6,i,nt,6.4,0.69,-0.6,nt
Cc1nnc(N2CCC(C(=O)N3CCCCC3)CC2)c2nn(-c3ccc(Cl)cc3)c(C)c12,5.7,nt,nt,nt,0.66,-45,6.6
Cc1ccc(C(=O)Nc2ccccc2C(=O)N2CC3(C)CC2CC(C)(C)C3)cc1 (stereo unspecified),1.0,nt,0%,nt,0.73,2.3,0.2
C=CCc1cccc(OC)c1OCCOCCn1ccnc1,-4.0,i,10%,4.0,0.67,4.2,0.7
COc1ccc(/C=N/NC(=O)C2COc3ccccc3O2)cc1OC (stereo unspecified),2.1,i,nt,-1.4,nt,nt,-20
Cc1ccc(-c2nn3c(C)nnc3s2)cc1NC(=O)c1cccnc1,5.5,nt,6%,nt,0.68,2.3,6.1
# New compounds follow.
SMILES,HNF4A DNA FP,FGF22 binding,Vif A3G,MLL AF4-AF9 inh,Ecoli growth,UCH37 DUB inh,RanGTP-Impb inh
COc1ccc(-c2noc(N3CCC(C(=O)NCCCN4CCCC(C)C4)CC3)n2)cc1 (stereo unspecified),-1.9,i,nt,4.7,0.7,1.1,?
CCCN[C@@H]1C(=O)N2C(C(=O)OCCC)=C(C)CS[C@H]12,-2.7,i,nt,-13,nt,1.5,-3.8
N/C(=N\OC(=O)/C=C/c1ccccc1Cl)c1ccncc1,-0.5,i,22%,4.7,0.64,7.4,0.7
COc1cccc(Sc2ccccc2/C=N/NC(N)=O)c1,-0.8,i,nt,-4.1,nt,nt,2.1
CCN(CC)S(=O)(=O)c1ccc(C(=O)NCc2ccc3c(c2)cc(C)n3C)cc1,-7.7,i,-31%,2.2,0.72,1.3,?
CC(=O)c1c(O)cc(O)c(C(C)=O)c1O,-3.6,nt,nt,nt,0.67,9.2,6.7
Cc1cc(C)n(-c2nc3ccccc3c(=O)n2OCC(=O)N(C)C)n1,0.6,nt,-3%,nt,0.72,1.9,8.8
CCOC(=O)c1sc2ccc(S(=O)(=O)N3CCOCC3)cc2c1N,3.5,nt,-7%&3%,nt,0.7,-16,3.3
Cc1ccc(C2(C)NC(=O)N(CCOc3ccccc3)C2=O)cc1 (stereo unspecified),-1.8,nt,10%,nt,0.69,-0.9,4.5
COc1cccc2cc(C(=O)NNC(=O)c3ccc(Br)cc3)c(=O)oc12,0.7,i,nt,-1.6,0.75,5.0,4.9
COc1ccc(C2=NNC(c3cccs3)=Nc3ccc(OC)cc32)cc1,-1.4,nt,-3%,nt,0.76,-6.9,-1.2
COc1ccc2[nH]c3c(c2c1)CCN1C(=O)C(CC(=O)NCc2ccco2)C[C@H](C(=O)N2CCCCC2)[C@@]31CCc1ccccc1 (stereo partly specified),0.5,i,-5%,3.4,0.71,1.0,nt
C[C@H](O)[C@@H]1CN2CCc3c([nH]c4ccccc34)[C@@H]2C[C@@H]1N(C)C(=O)Nc1ccc(Br)cc1,1.7,i,nt,6.7,nt,nt,nt
CC(C)n1cc(CN2CCCC(C(=O)Nc3ccccc3Oc3cccnc3)C2)cn1 (stereo unspecified),2.7,i,nt,-1.4,nt,nt,2.3
CCOC(=O)N1CCC(N2Cc3cccc(C(=O)N4CCN(c5cccc(C)c5C)CC4)c3C2=O)CC1,2.2,i,-4%,1.8,0.71,-0.6,?
CCCCOC(=O)Nc1ccc(S(=O)(=O)Nc2ccc([N+](=O)[O-])cc2)cc1,0.2,nt,nt,nt,0.69,2.7,-4.6
COc1cc(OC)c(C2=NOC(C(=O)Nc3cc(C)nn3-c3ccccc3)C2)cc1Cl (stereo unspecified),0.6,nt,-4%,nt,0.68,2.6,4.4
CSc1nnc(-c2ccccc2)n1N,1.6,nt,18%,nt,0.71,-2.3,nt
